Screening data (PubChem)
GIV Gai3 FP = inhibitors of GIV peptide binding to Galpha-i3, primary screen, biochemical, fluorescence polarization, FITC-GIV GBA peptide, rat Galphai3. 90 min; stronger effect = lower value; scaled: aluminum fluoride 0%, vehicle 100%. percent of control (FP), % (test concentration not listed). 210,000 tested, 0.42% active. Guanine nucleotide-binding protein G(i) subunit alpha-3 (Rattus norvegicus), P08753;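 active means replicate mean at 85% of control or lower, very high polarization wells dropped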;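 further: wells of about 15 µL received 100 nL stock; the first replicate is given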
Target sequence (P08753 whole entry, looked up): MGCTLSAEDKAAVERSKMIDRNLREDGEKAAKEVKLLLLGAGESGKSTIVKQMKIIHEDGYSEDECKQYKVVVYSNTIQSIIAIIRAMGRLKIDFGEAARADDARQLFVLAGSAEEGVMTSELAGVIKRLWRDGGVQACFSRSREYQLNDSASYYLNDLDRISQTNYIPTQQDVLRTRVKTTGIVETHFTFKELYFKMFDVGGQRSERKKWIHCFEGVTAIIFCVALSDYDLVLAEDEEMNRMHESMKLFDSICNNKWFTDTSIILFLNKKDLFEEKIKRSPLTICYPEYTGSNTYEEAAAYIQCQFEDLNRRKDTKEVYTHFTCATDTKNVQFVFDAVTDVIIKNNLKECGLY
An asterisk follows results filed as active.

SMILES | GIV Gai3 FP
O=C(c1nc(-c2csc(S(=O)(=O)N3CCOCC3)c2)no1)N1CCCC1 | 103
Cc1cc(-c2ccc(C3Nc4ccc5ccccc5c4C4=C3C(=O)CC(C)(C)C4)o2)ccc1[N+](=O)[O-] (stereo not given) | 102
Cc1cc(C)cc(NC(=O)c2ccc(-c3noc(C4CCN(C(=O)c5ccccc5)CC4)n3)cc2)c1 | 100
O=S(=O)(c1cccc(C(F)(F)F)c1)N1CCC(N2CCOCC2)CC1 | 102
CCOc1cc(C2C(C#N)=C(N)Oc3n[nH]c(-c4ccncc4)c32)cc([N+](=O)[O-])c1OC(=O)N1CCOCC1 (stereo not given) | 102
Cc1ccc(C23CC4CC(CC(C(=O)CN5CCCC5)(C4)C2)C3)cc1 | 109
CCOc1ccc2nc(NC(=O)C3CC(=O)N(c4cccc(NC(C)=O)c4)C3)sc2c1 (stereo not given) | 105
CCc1nnc2sc(-c3ccc(CNC(=O)c4sc5ccccc5c4Cl)cc3)nn12 | 98
Cc1cc(-c2ccccc2)nc(SCC(=O)N2CCCCC2)n1 | 102
CCCCNc1nc(SCC(=O)Nc2cc(C)on2)nc2ccccc12 | 113
O=C(CSc1nc2ccccc2c(=O)n1CC1CCC(C(=O)NCc2ccccc2Cl)CC1)NCc1ccco1 (stereo not given) | 116
CCOc1cc(C2C3=C(CC(C)(C)CC3=O)OC3=C2C(=O)CC(C)(C)C3)ccc1O | 106
CC(=O)c1cccc(N2C(=O)C3C(C2=O)C2(C)c4ccccc4C3(C)c3ccccc32)c1 (stereo not given) | 106
CN(CCc1noc(C(=O)NCc2ccccc2)n1)C(=O)NC1CCCC1 | 102
COc1ccc(N2CC(c3nnc(NC(=O)Cc4ccc(F)cc4)o3)CC2=O)cc1 (stereo not given) | 102
COc1ccc(Cl)cc1NS(=O)(=O)c1cc(-c2nc(C)cs2)sc1C | 155
Cc1ccc(-c2nnc(-c3cccnc3N3CCCC3)o2)cc1 | 100
CC1CC(C)(C)N(C(=O)CN2C(=O)c3ccccc3C2=O)c2ccccc21 (stereo not given) | 117
COc1ccc(-c2nc3ccc(C(=O)N4CCN(c5ccccc5)CC4)cc3nc2-c2ccc(OC)c(OC)c2)cc1OC | 102
CN(C)CCN1C(=O)C(=O)/C(=C(/O)c2ccccc2)C1c1ccc(O)cc1 (stereo not given) | 116
COC(=O)c1ccc(C2Oc3c(OC)cccc3C3CC(c4ccc(F)cc4)=NN32)cc1 (stereo not given) | 103
CC(C)CC1(C(=O)O)NC(c2ccccc2O)C2C(=O)N(Cc3ccccc3)C(=O)C21 (stereo not given) | 103
NC(=O)CSc1nc2c(c(=O)n1-c1ccccc1)C1(CCCCC1)Cc1ccccc1-2 | 100
CCn1c(SCc2nc(-c3ccccc3)oc2C)nc(=O)c2c(C(=O)OC)cc(C3CC3)nc21 | 108
COc1ccc2nc(SCC(=O)Nc3ccc([N+](=O)[O-])cc3Cl)[nH]c2c1 | 121
The listing continues.
SMILES | GIV Gai3 FP
COc1cc(-n2cnc3cc(C(=O)NCCC4=CCCCC4)ccc32)cc(OC)c1OC | 104
Cc1ccc(NC(=O)C(=O)NCC(C)C)cc1C | 108
O=C1NN(c2ccccc2)C(=O)/C1=C\C=C\c1ccco1 | 118
Cn1ccc2c(OCC(=O)N3CCCCC3)cccc2c1=O | 99
COc1cccc(N2CC(C(=O)NCc3nnnn3-c3ccc(F)c(F)c3)CC2=O)c1 (stereo not given) | 105
COC(=O)c1cc(C)nc2c1c(=O)nc(SCc1nc(-c3ccccc3Cl)oc1C)n2C1CC1 | 110
Cc1cccc(C(=O)N(C)CCc2noc(C(=O)NCc3ccccc3)n2)c1 | 98
CCOC(=O)C1=C(C)N=c2s/c(=C\c3ccc(N(C)C)cc3)c(=O)n2C1c1ccc(OC)cc1OC (stereo not given) | 184
CCC1=NS(=O)(=O)c2cccnc2N1c1ccc(SC)cc1 | 107
Cc1ccc(Nc2nccc(C3CCCN(C(=O)C(C)(C)C)C3)n2)cc1 (stereo not given) | 110
O=C(Nc1sc2c(c1-c1nc3ccccc3s1)CCCC2)c1ccc(S(=O)(=O)N2CCc3ccccc32)cc1 | 118
COc1ccccc1C(=O)Nc1cc(-c2ccccc2)nn1-c1ccccc1 | 108
COc1cccc(C2=N/C(=C\c3ccccc3OC)C(=O)N2c2ccccc2Cl)c1 | 112
CC(C)C(=O)Nc1cc(Cl)ccc1OCc1cc(=O)n2ccsc2n1 | 108
N#Cc1c(C(F)(F)F)cc(-c2cccs2)nc1SCC(=O)NC1CC1 | 99
Cn1c(=O)c(C(=O)Nc2ccc3c(c2)OCCO3)nc2ccccc21 | 101
CC1=Nc2ccc([N+](=O)[O-])cc2C1(C)C | 113
CC(C)(C)c1ccc(S(=O)(=O)Nc2ccc3oc4c(c3c2)CC(C(C)(C)C)CC4)cc1 (stereo not given) | 108
Cc1ccccc1Cn1cnc2sc3c(c2c1=O)CCCC3 | 105
Cc1c(C(=O)N2CCN(c3ccccc3)CC2)sc2ncn(CC(=O)Nc3cccc(C(F)(F)F)c3)c(=O)c12 | 102
CCN(CC)c1ccc(C2C3=C(CC(c4ccc(F)cc4)CC3=O)Nc3ccccc3N2C(=O)CCC(=O)O)cc1 (stereo not given) | 103
CCOc1ccc2c3c(c(=O)oc2c1)CCCC3 | 109
Cc1nc(-c2cc(S(=O)(=O)N3CCN(c4cccc(C)c4C)CC3)c(C)s2)cs1 | 109
COc1cc(C2CC(=O)Nc3ccc4ccccc4c32)cc(OC)c1O (stereo not given) | 111
CCOC(=O)c1ccc(NC(=O)CSc2nc3ccccc3c(=O)n2CCC(=O)NCCc2ccccc2)cc1 | 103
New compounds follow:
SMILES | GIV Gai3 FP
Cc1c(C(=O)NCC2CCCO2)sc2ncnc(N3CCOCC3)c12 (stereo not given) | 98
CC(C)NC(=O)c1ccc(-c2nc3cc(NS(=O)(=O)c4cc(F)cc(F)c4)ccc3n2C)cc1 | 102
O=c1c2cc3c(cc2nc(SCc2nc(-c4cccc(Br)c4)no2)n1C1CC1)OCO3 | 98
CCOC(=O)c1c(NC(=O)CSc2nnc(CNC(=O)c3cccc(F)c3)n2C)sc2c1CCCCC2 | 97
CC1Oc2ccc([N+](=O)[O-])cc2C2OC(c3ccccc3)(c3ccccc3)c3ccccc3N12 (stereo not given) | 108
COc1ccc(NC(=O)Cn2ncn3nc4c(c3c2=O)CCCC4)cc1 | 103
CCOC(=O)C1=C(C)N=c2s/c(=C/c3ccc(N4CCOCC4)o3)c(=O)n2C1c1ccc(OC)c(Br)c1 (stereo not given) | 109
CN(C)/C=C1/N=C(c2ccccc2)c2cc(Cl)ccc2N(C)C1=O | 110
O=C(COc1ccccc1)N1N=C2CCCCC2C1(O)C(F)(F)F (stereo not given) | 105
CN(C)c1ccc(CNC(=O)c2cc3c(-c4ccc(Cl)cc4)nn(C)c3s2)cc1 | 103
Cc1ccc(C(=O)CC(SCc2ccco2)c2ccc([N+](=O)[O-])cc2)cc1 (stereo not given) | 116
O=S(=O)(NCCc1ccc(Cl)cc1)c1cccc2nonc12 | 107
CC(=O)NCc1csc(C2CCCN(S(=O)(=O)C(C)C)C2)n1 (stereo not given) | 102
CC(=O)Nc1ccc(-c2noc(C3CCCN(C(=O)c4cc(C)cc(C)c4)C3)n2)cc1 (stereo not given) | 104
N#CC1=C(N)C(C#N)(C#N)[C@@H](c2ccccc2Cl)[C@@H]2CCCC=C12 | 104
CCCCN(CCCC)CC(O)CN(c1ccccc1)S(=O)(=O)c1ccc(C)cc1 (stereo not given) | 117
Cc1cc(-c2ccc(S(=O)(=O)Nc3ccc(S(N)(=O)=O)cc3)c(C)c2)on1 | 108
CC1=C(C(=O)OCC2CCCO2)C(c2cc(Br)ccc2F)C2=C(CC(c3cccs3)CC2=O)N1 (stereo not given) | 109
COc1cc2c(cc1OC)C(=NC(Cc1c[nH]c3ccccc13)C(=O)O)NC(C)(C)C2 (stereo not given) | 105
O=C(CN1CCCCCC1)N1c2ccccc2Sc2ccc(C(F)(F)F)cc21 | 128
O=C1/C(=C/c2ccc(-c3ccc(Br)cc3)o2)C=C(c2ccccc2)N1c1ccccc1Br | 146
O=C(Cn1cnc2onc(-c3cccc(F)c3)c2c1=O)NC1CCCC1 | 110
Cc1cn2c(n1)-c1ccccc1C2 | 119
O=C(Nc1cc(C(=O)N2CC=C(c3ccccc3)CC2)ccc1N1CC2CC(C1)c1cccc(=O)n1C2)c1ccncc1 (stereo not given) | 110
Cc1cc(NC(=O)C(=O)c2cccn2C)no1 | 102

Two records picked at random from the list so far, as already listed:
SMILES | GIV Gai3 FP
CCCCNc1nc(SCC(=O)Nc2cc(C)on2)nc2ccccc12 | 113
COc1ccc(Cl)cc1NS(=O)(=O)c1cc(-c2nc(C)cs2)sc1C | 155

Remaining list, next part
SMILES | GIV Gai3 FP
CC1(C)CC(=O)C2=C(C1)c1c(ccc3ccccc13)NC2c1cccc(OCc2ccccc2F)c1 (stereo not given) | 103
N#CC1=CN(c2ccc3c(c2)CCC3)c2ccc(F)cc2S1(=O)=O | 103
CCc1cc(C2CCCN2C(=O)Nc2ccc3c(c2)OCCO3)on1 (stereo not given) | 101
Cc1c(N=Cc2ccccc2OCC#N)c(=O)n(-c2ccccc2)n1C | 107
COc1ccccc1N1CCN(Cc2cc(Br)c(O)c3ncccc23)CC1 | 99
COc1ccc(CCNC(=O)CSc2nc3ccccc3c(=O)n2NC(=O)Cc2ccccc2)cc1OC | 110
CCc1nc(-c2ccc(-c3noc(C4CCC4)n3)cc2)cs1 | 103
CC1CSc2ccccc2N(C(=O)C2CCN(S(=O)(=O)c3cccnc3)CC2)C1 (stereo not given) | 103
CCOC(=O)c1ccc(N2C(=O)C3C(c4cccc(Cl)c4Cl)OC4(C(=O)c5ccccc5C4=O)C3C2=O)cc1 (stereo not given) | 119
COC(=O)c1ccc(N2C(=O)C3C4c5ccccc5C(c5ccccc54)C3C2=O)cc1 (stereo not given) | 109
CCc1nc(CN2C(=O)COc3ccc(S(=O)(=O)N(C)C4CCCCC4)cc32)no1 | 105
CCC(C)NC(=O)COc1nc(C)nc2onc(-c3ccc(F)cc3)c12 (stereo not given) | 106
CCCCCCNC(=O)c1cccc(-c2cnc(N3CCCC3)nc2)c1 | 104
CCOC(=O)c1[nH]c(C)c(CN(Cc2ccc(C)cc2)C(=O)Nc2ccccc2OCC)c1C | 104
Cc1cccc(NC(=O)CSc2nccnc2N2CCN(c3cc(C)ccc3C)CC2)c1 | 108
CN(C)Cc1c(O)ccc2c(=O)c(Oc3ccc4ccccc4c3)c(C(F)(F)F)oc12 | 101
Cc1ccc(NC(=O)/C(=C\c2ccc3c(c2)OCO3)NC(=O)c2ccccc2Br)cc1 | 117
CCOC(=O)c1cc(C)nc2c1c(=O)n(Cc1nc(-c3ccc(OC(C)C)cc3)oc1C)c(=O)n2C | 103
Cc1c(N=Cc2cccc(OCc3ccccc3)c2)c(=O)n(-c2ccccc2)n1C | 102
COc1ccccc1N(NC(=O)C(O)(c1cccc(C(F)(F)F)c1)c1cccc(C(F)(F)F)c1)C(=O)CCl | 117
Cc1nn(-c2ccc3nnc(C)n3n2)c2c1C(c1ccc(OCc3ccccc3Cl)cc1)CC(=O)N2 (stereo not given) | 101
CC(C)n1c(=O)c2nscc2n(CC(=O)NC2CCCC2)c1=O | 102
CCn1c(CN(C)C(=O)NCC2CCCO2)nc2cc(C(=O)N(C)C)ccc21 (stereo not given) | 102
Cc1ccccc1S(=O)(=O)Nc1cc(Br)c2oc3c(c2c1)C(=O)CCC3 | 107
COc1ccc(OC)c(N=c2ssc3c2-c2cc(C)c(C)cc2NC3(C)C)c1 | 122
Following part:
SMILES | GIV Gai3 FP
CCS(=O)(=O)c1nc2ccc(NS(=O)(=O)c3cccc(F)c3)cc2s1 | 108
CC1C=CCC2C(=O)N(c3cccc(C(=O)OCC(=O)c4ccc(Br)cc4)c3)C(=O)C12 (stereo not given) | 99
Cc1ccccc1-c1cc2n(C)c(C)c(CCC(=O)NCCC3=CCCCC3)c(=O)n2n1 | 105
Cc1cc(N2C(=O)NC(=O)/C(=C/c3ccccc3Cl)C2=O)ccc1Br | 111
O=C(O)c1cccnc1SCc1cccnc1 | 102
Cc1c(C(=O)NCc2ccco2)sc2ncnc(N3CCOCC3)c12 | 101

Among those listed so far, 15 have an aryl thioether with sulfur outside any ring.
SMILES | GIV Gai3 FP
Cc1cc(-c2ccccc2)nc(SCC(=O)N2CCCCC2)n1 | 102
CCCCNc1nc(SCC(=O)Nc2cc(C)on2)nc2ccccc12 | 113
O=C(CSc1nc2ccccc2c(=O)n1CC1CCC(C(=O)NCc2ccccc2Cl)CC1)NCc1ccco1 (stereo not given) | 116
NC(=O)CSc1nc2c(c(=O)n1-c1ccccc1)C1(CCCCC1)Cc1ccccc1-2 | 100
CCn1c(SCc2nc(-c3ccccc3)oc2C)nc(=O)c2c(C(=O)OC)cc(C3CC3)nc21 | 108
COc1ccc2nc(SCC(=O)Nc3ccc([N+](=O)[O-])cc3Cl)[nH]c2c1 | 121
COC(=O)c1cc(C)nc2c1c(=O)nc(SCc1nc(-c3ccccc3Cl)oc1C)n2C1CC1 | 110
CCC1=NS(=O)(=O)c2cccnc2N1c1ccc(SC)cc1 | 107
N#Cc1c(C(F)(F)F)cc(-c2cccs2)nc1SCC(=O)NC1CC1 | 99
CCOC(=O)c1ccc(NC(=O)CSc2nc3ccccc3c(=O)n2CCC(=O)NCCc2ccccc2)cc1 | 103
O=c1c2cc3c(cc2nc(SCc2nc(-c4cccc(Br)c4)no2)n1C1CC1)OCO3 | 98
CCOC(=O)c1c(NC(=O)CSc2nnc(CNC(=O)c3cccc(F)c3)n2C)sc2c1CCCCC2 | 97
COc1ccc(CCNC(=O)CSc2nc3ccccc3c(=O)n2NC(=O)Cc2ccccc2)cc1OC | 110
Cc1cccc(NC(=O)CSc2nccnc2N2CCN(c3cc(C)ccc3C)CC2)c1 | 108
O=C(O)c1cccnc1SCc1cccnc1 | 102

This is a subset. The share of hits here may be higher or lower than overall.
